Source: PubChem BioAssay
Ecoli growth – E. coli growth inhibition, primary screen, OD600; Escherichia coli growth, 23 h; active compounds read low; 330,000 tested, 0.21% active; OD600 absorbance (concentration not given with the values); AID 1053175, 2014;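 active = OD600 absorbance below the run mean of sample wells minus 3.6 SD, in any replicate, cut at about 0.56 in these data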;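 note: stock transfer was 300 nL into about 60 µL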
Active calls of the source: *; & = joins results of further samples. This is a subset; rates above refer to the full screens.

SMILES	Ecoli growth
CC(C)CC(=O)N1CC=CCC(c2ccc(Cl)cc2)N(Cc2ccc(Cl)cc2)C(=O)C1Cc1ccccc1 (stereo unspecified)	0.67
CC(=O)n1cc(C2C=C(C(=O)O)OC(OCCCCO)C2)c2ccccc21 (stereo unspecified)	0.65
COc1ccc(N2C(=O)CC(S/C(N)=N/N=C(C)c3cccs3)C2=O)cc1 (stereo unspecified)	0.65
C=C(C)Cn1c(SCC(=O)NN=Cc2ccccc2OCC(=O)O)nnc1-c1ccc(Br)cc1	0.66
COc1cc(C(=O)NN=Cc2ccc(OC(=O)N3CCOCC3)cc2)cc(OC)c1OC	0.66
COc1cc(C=Nn2cnnc2)ccc1OCc1ccc(C)cc1	0.7
CCc1ccc(C=NNC(=O)c2cc(C3CC3)nc3ccccc23)s1	0.75
COc1ccc2c(c1)-c1nc(N=Cc3ccc(O)c(OC)c3)sc1CC2	0.67
COc1ccc2c(c1)OCC1C2N2C(=O)c3cc(OC)ccc3NC(=O)[C@@]2(C)C1c1ccccc1 (stereo partly specified)	0.74
COCCN1C(=O)NC(c2cccs2)C(C(=O)OC)=C1C (stereo unspecified)	0.69
ON=C(CCc1ccccc1)c1ccc2c(c1)OCCO2	0.66
C=CCNC(=O)C(C#N)=Cc1c(N(Cc2ccccc2)Cc2ccccc2)nc2ccccn2c1=O	0.74
COc1cc(C(=O)NCC(=O)NN=Cc2cccnc2)cc(OC)c1OC	0.65
COC(=O)[C@]1(CC(C)C)NC(c2ccc(-c3ccc(F)cc3)cc2)C2C(=O)N(C)C(=O)C21 (stereo partly specified)	0.63
CCOC(=O)C(=NNc1ccccc1Cl)N1CCN(Cc2ccccc2)CC1	0.65
CC(=NNC(=O)C1CC1)c1ccc(C)cc1C	0.64
COc1cccc(C=NNC(=O)CC(=O)NCCc2ccccc2)c1OC	0.68
CC(C)(C)C1COC(=O)CCCC=CCC(CC(=O)N(CCO)Cc2ccccc2)C(=O)N1 (stereo unspecified)	0.69
CCOC(=O)C1C2COc3cc(OC)ccc3C2N2C(=O)N(c3ccc(Cl)cc3)C(=O)[C@]12C (stereo partly specified)	0.68&0.7
CC(C)C(NC(=O)OCc1ccccc1)C(=O)NC(C=O)Cc1ccccc1 (stereo unspecified)	0.7
CC(/C=C/c1ccccc1)=NNC(=O)c1cccc(Br)c1	0.71
O=C(O)CC1c2cc(F)ccc2S(=O)(=O)N1C1CCCC1 (stereo unspecified)	0.69
COc1ccc(C(C)=NNC(=O)c2nnn(-c3nonc3N)c2CN(C)c2ccccc2)cc1	0.67
O=c1c2ccccc2nc(COc2ccccc2)n1N=Cc1ccc(O)cc1O	0.67
COC(=O)c1sccc1-c1ccc(C=NOC(=O)c2ccccc2)o1	0.71
CCCCCCc1ccc(N2CC(Cc3ccccc3)C(CC(=O)Nc3ccccc3)C2=O)cc1 (stereo unspecified)	0.71
CC(=NNC(=O)c1cc(C(C)C)[nH]n1)c1cccs1	0.67
N#CC(=NO)c1nc2ccccc2s1	0.62
COc1ccc(C(=O)NN=CC2CC=CCC2)cc1OC (stereo unspecified)	0.71
CCCCCN=C(N)NN=Cc1c[nH]c2ccc(OC)cc12	0.059*
COc1ccc2c(c1)OCC1C2N2C(=O)CN(Cc3ccc(F)cc3)C(=O)[C@@]2(C)C1c1ccccc1 (stereo partly specified)	0.69
CC(C)COc1ccc(C(O)=C2C(=O)C(=O)N(CCN(C)C)C2c2ccncc2)cc1 (stereo unspecified)	0.69
CC(=NNC(=O)c1ccco1)c1ccc(-c2ccccc2)cc1	0.69
CC(=NNC(=O)C(c1ccccc1)c1ccccc1)c1ccc(O)cc1	0.67
Fc1ccccc1C=NNc1ccc(Cl)nn1	0.63
CNC(=S)NN=C(C)c1ccc2c(c1)OCCO2	0.72
CC(C)CC(C)C(=O)N(Cc1ccccc1)c1ccccc1 (stereo unspecified)	0.66
COc1cccc(OCCOc2cccc(C=Nn3cnnc3)c2)c1	0.67
COc1cc(CCCN2C(N)=NCC2Cc2ccc(O)cc2)cc(OC)c1OC (stereo unspecified)	0.7&0.69
CCN1C(=O)C2C(c3ccc(C)cc3)N3C(=O)N(c4cccc(Cl)c4)C(=O)[C@@]3(CC)C2C1=O (stereo partly specified)	0.73
CCCCC(=O)NN=C(C)CC(=O)Nc1ccccc1Br	0.72
O=C(O)C1=CC(C2CC2)CC(OCCCCO)O1 (stereo unspecified)	0.69&0.68
COc1ccc(S(=O)(=O)N=C2C=CC(=O)C(C)=C2C)cc1	0.73
COc1ccc2c3c1OC1CC(O)C=C[C@@]31CCN(C)C2 (stereo partly specified)	0.72
CCCOc1ccc(-c2c(C(=O)NN=C(C)COc3ccccc3)nnn2-c2nonc2N)cc1	0.65
CC[n+]1c(C=CN(C)c2ccccc2)oc2ccc(Cl)cc21	0.68
COc1ccc(C=NOCC(=O)N=Nc2c(O)[nH]c3ccc(Br)cc23)cc1OC	0.66
CCOC(=O)C1C2COc3ccc(Cl)cc3C2N2C(=O)CN(Cc3ccc(Cl)cc3)C(=O)[C@@]12C (stereo partly specified)	0.68
Cc1ccc([N+](=O)[O-])cc1-c1ccc(C=NNC(=O)CN2CCOCC2)o1	0.65
C(=NNc1nc2ccccc2[nH]1)c1ccccn1	0.63
Cn1c(NC(=O)C=Cc2c(F)cccc2Cl)cc(=O)n(C)c1=O	0.73
O=C(CN1CCCCCC1)NN=Cc1ccc2ccccc2c1	0.67
CC(=O)Nc1sc(NN=Cc2ccc(O)cc2)nc1-c1cccs1	0.69
Cc1ccc(C(=O)ON=Cc2ccc(N3CCCCC3)c([N+](=O)[O-])c2)cc1	0.7
CCOc1ccccc1C=NNC(=O)c1nnn(-c2nonc2N)c1CN1CCCC1	0.71
CCC(CC(=O)C(F)(F)F)=NNC(=O)/C(C#N)=C/N(C)C	0.68
CC(=O)n1cc(C2C=C(C(=O)Nc3ccccc3)OC(OCCCCO)C2)c2ccccc21 (stereo unspecified)	0.65&0.69
COc1ccc(OC)c(S(=O)(=O)NN=Cc2ccc3c(c2)OCO3)c1	0.71
COc1ccc(C=NNC(=O)c2ccccc2NC(=O)c2ccco2)c(OC)c1	0.69
CCCN1CCC(=O)N(C(COc2ccccc2)c2ccccc2)CC1 (stereo unspecified)	0.66

Further results follow.
SMILES	Ecoli growth
CCC(=NNC(=O)C1CCCC1)c1ccc(Br)cc1	0.69
COc1ccc(C=NNC(=O)c2ccccc2OC)cc1COc1ccccc1C	0.69
Cc1cc(-c2n[nH]c(=S)n2N=C/C(Cl)=C/c2ccccc2)n[nH]1	0.65
Cc1ccc(-c2ccc(C=NNC(=O)c3cc4c(ccc5ccccc54)o3)o2)cc1[N+](=O)[O-]	0.71
Cc1ccc(C=NNC(=O)C(C)Oc2cccc3ccccc23)o1 (stereo unspecified)	0.73
CCn1nc(C)c(C=NNC(=O)CSc2ccccn2)c1C	0.64
COc1ccc(-c2c(C3C4C=CCC(C)C4C(=O)N3Cc3ccccc3)ccc3ccccc23)cc1OC (stereo unspecified)	0.74
ON=Cc1cn(-c2ccccc2)nn1	0.65
O=C(CNc1ccc(F)cc1)NN=C1CCc2ccccc21	0.67
N#Cc1cc(-c2ccccc2)oc1N=Cc1ccccc1O	0.66
O=C(CNC(=O)c1cccc(Cl)c1)NN=C/C=C/c1ccccc1	0.68
Cc1ncc(CO)c(C=NNc2cccc(Cl)n2)c1O	0.66
COc1ccc(C2C3C(=O)N(C(C)(C)C)C(=O)C3[C@]3(Cc4ccccc4)C(=O)N(c4ccc(C(F)(F)F)cc4)C(=O)N23)cc1 (stereo partly specified)	0.66
COC(=O)C1=C(C)N(Cc2ccccc2)C(=NCc2ccccc2)NC1c1cccc(F)c1 (stereo unspecified)	0.64
O=C(O)c1cccc(-c2ccc(C=NNc3nn[nH]n3)o2)c1	0.69
CCCCCCC(=O)NN=CCc1ccccc1	0.69
CC(=O)OCC1OC(Oc2cc(O)cc3oc(-c4ccc(O)cc4)cc(=O)c23)C(OC2OC(C)C(O)C(O)C2O)C(O)C1O (stereo unspecified)	0.64
CC(=NNC(=O)c1cc(C)oc1C)c1ccc2c(c1)OCO2	0.69
C#CCOCCOCCOCCNc1nc(N2CCOCC2)nc(N2CCN(C(=O)CCCCCCCCCCNC(=O)C(C(C)CC)n3cc(CCCCCN)nn3)CC2)n1 (stereo unspecified)	0.65
Fc1ccccc1C=NNc1nc2ccccc2o1	0.68
CCN(CC)c1ccc(C=NNC(=O)c2cc(C)nc3ccccc23)cc1	0.67
S=c1[nH]nc(-c2cccnc2)n1N=Cc1cccs1	0.67
O=C(Cn1cnc([N+](=O)[O-])n1)NN=Cc1cc(Cl)ccc1O	0.67
COC(=O)N1CCN(c2ccc(C)c(C)c2)CC1	0.69
CCC(C)C(C)=NNC(=O)c1cn(-c2ccccc2)nc1-c1ccccc1 (stereo unspecified)	0.67
COc1ccc2nc(C)cc(NN=Cc3ccc(F)cc3)c2c1	0.66
O=C(O)Cc1sc(NN=Cc2ccncc2)nc1-c1ccccc1	0.69
CCOC(=O)CC1c2cc(F)ccc2S(=O)(=O)N1C1CCCC1 (stereo unspecified)	0.68
O=C(CSc1nc2ccccc2s1)NN=Cc1ccc(C(=O)O)cc1	0.7
CON=CCc1oc(=O)c(NC(=O)c2ccccc2)cc1C(=O)OC	0.84
CC(C)C1C(=NO)CC(c2ccccc2)NC1c1ccccc1 (stereo unspecified)	0.65
CN(C)c1ccc(C=NNC(=O)c2sccc2-n2cccc2)cc1	0.71
FC(F)(F)c1cccc(-n2cccc2C=Nn2cnnc2)c1	0.65
CCOC1OC(C(=O)N2CCOCC2)=CC(c2ccc3c(c2)OCO3)C1CCCO (stereo unspecified)	0.67
CN1C(=O)C2C(C=Cc3ccccc3)N3C(=O)CN(Cc4ccc(-c5ccccc5)cc4)C(=O)[C@@]3(Cc3ccccc3)C2C1=O (stereo partly specified)	0.68
COc1ccc(CCNC(=O)C(=O)NN=Cc2cccs2)cc1OC	0.63
O=[N+]([O-])c1cccc(-c2ccc(C=NNC(=S)Nc3cccc(F)c3)o2)c1	0.67
Cc1cc[n+](-c2[nH]c(=O)sc2C=NNC([S-])=Nc2ccccc2)cc1C	0.69
CC1C(=NO)CC(c2ccco2)NC1c1ccco1 (stereo unspecified)	0.73
Cc1cccc(C(=O)Nc2cccc(C(=O)NN=Cc3cccc(C)n3)c2)c1	0.7
CCCN(CCC)Cc1c(C(=O)NN=C/C(C)=C\c2ccccc2)nnn1-c1nonc1N	0.7
COc1ccc(CCNC(=O)CC(C)=NNC(=O)c2ccc([N+](=O)[O-])cc2Cl)cc1OC	0.66
CC1C=C[C@](Cc2ccccc2)(C(=O)NCCc2c[nH]c3ccccc23)N1C(=O)c1ccccc1 (stereo partly specified)	0.65
Cc1ccc(S(=O)(=O)N(C)N=Cc2ccc(N(C)C)cc2)cc1	0.7
CC(C)C[C@@]12C(=O)N(c3cccc(Br)c3)C(=O)N1C(c1ccc(F)cc1)C1C(=O)N(C3CCCCC3)C(=O)C12 (stereo partly specified)	0.74
O=C(NCc1cccnc1)C1CC=CC2CCN(Cc3ccccc3)C(=O)C21 (stereo unspecified)	0.7
O=S(=O)(NN=Cc1ccc2c(c1)OCCO2)c1ccccc1	0.69
O=S1(=O)N=C(N(CCO)N=Cc2ccccc2F)c2ccccc21	0.63
C=CCC(CC(=O)NC(CO)Cc1ccccc1)C(=O)NC(COC(=O)C(CC=C)Cc1ccc(F)cc1)Cc1ccccc1 (stereo unspecified)	0.67&0.75&0.71
COc1ccc2c(c1)OC(c1ccc3c(c1)OCO3)C(O)C2=O (stereo unspecified)	0.69
O=C(COC(=O)C1CC(O)CN1S(=O)(=O)c1ccccc1[N+](=O)[O-])Nc1ccc2ccccc2c1 (stereo unspecified)	0.66
CCN1C(=O)SC(=Cc2ccc(Oc3ccc([N+](=O)[O-])cn3)c(OC)c2)C1=O	0.71
NC(=O)C1(NC(=O)C2CC3(CC(c4cccc(NC(=O)c5cc([N+](=O)[O-])cc([N+](=O)[O-])c5)c4)=NO3)CN2C(=O)c2ccccc2)CC1 (stereo unspecified)	0.65
O=C(CSCc1ccc(Cl)cc1)NN=Cc1ccc(OCC(=O)Nc2ccccc2)cc1	0.76
CC(C)CC(CO)NC(=O)CCC(NC(=O)OC(C)(C)C)C(=O)N(Cc1ccccc1)Cc1ccccc1 (stereo unspecified)	0.67
O=[N+]([O-])c1cccc(C=NN=C2c3ccccc3-c3ccccc32)c1O	0.66
O=C(NN=Cc1ccco1)c1cccc([N+](=O)[O-])c1	0.7
